EPAC1 ag val – human EPAC1 agonism, validation. hit rate 1% among 16,000. O95398. EPAC1 Rap1b BODIPY-GDP exchange, fluorescence. Potency, µM, for inactives: max response, positive = active, usual class: activators. AID 1645883; active = well fitted activation curve with a large enough effect; inconclusive = small, poorly fitted or top-dose-only effect; inactive = no such curve, though single readings can be large or run the other way;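 note: nearly all actives have a fitted effect of over 70% in size; series mostly up to about 76 or 150 µM; scaled to a cAMP control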
Target sequence (O95398 whole entry, looked up): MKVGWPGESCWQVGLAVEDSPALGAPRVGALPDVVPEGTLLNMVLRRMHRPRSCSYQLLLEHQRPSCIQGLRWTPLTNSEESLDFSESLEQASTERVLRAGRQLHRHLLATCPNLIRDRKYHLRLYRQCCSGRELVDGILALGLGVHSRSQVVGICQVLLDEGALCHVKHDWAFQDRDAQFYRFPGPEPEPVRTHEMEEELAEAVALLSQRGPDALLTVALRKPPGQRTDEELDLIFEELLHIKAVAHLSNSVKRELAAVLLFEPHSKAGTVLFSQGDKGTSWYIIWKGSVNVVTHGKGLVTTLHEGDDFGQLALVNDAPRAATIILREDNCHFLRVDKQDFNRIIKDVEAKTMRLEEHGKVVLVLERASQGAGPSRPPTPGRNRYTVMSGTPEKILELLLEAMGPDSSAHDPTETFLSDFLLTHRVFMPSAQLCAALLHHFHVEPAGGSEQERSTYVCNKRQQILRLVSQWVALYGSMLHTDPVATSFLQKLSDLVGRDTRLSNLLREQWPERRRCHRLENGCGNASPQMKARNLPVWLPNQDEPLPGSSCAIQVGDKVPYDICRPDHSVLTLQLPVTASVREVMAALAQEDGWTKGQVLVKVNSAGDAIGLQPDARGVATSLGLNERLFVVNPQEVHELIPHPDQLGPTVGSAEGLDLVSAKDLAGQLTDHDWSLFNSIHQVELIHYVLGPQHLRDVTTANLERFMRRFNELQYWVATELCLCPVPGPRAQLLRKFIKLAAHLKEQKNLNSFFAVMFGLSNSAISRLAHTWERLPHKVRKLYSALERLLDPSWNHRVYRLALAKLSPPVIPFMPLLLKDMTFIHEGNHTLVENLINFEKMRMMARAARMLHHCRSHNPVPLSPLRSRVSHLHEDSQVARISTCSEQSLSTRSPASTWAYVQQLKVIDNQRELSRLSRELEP
* marks the source's active call; other numbers are inactive results; ? = inconclusive; & = joins results of further samples; [ ] = another dose, or the depositor's remark. % is set by controls: 0 for no effect and ±100 for the full control effect; potency is the fitted concentration of half-maximal effect. A portion of the library; the hit share may differ from the screen's.

SMILES	EPAC1 ag val
CCCCCCCCCCCCCCCCOCC(COP(=O)([O-])OCC[N+](C)(C)C)OC (stereo unspecified)	-6%
CN1C(C(=O)Nc2ccccn2)=C(O)c2ccccc2S1(=O)=O	?
O=C1Cc2cc(CCN3CCN(c4nsc5ccccc45)CC3)c(Cl)cc2N1	5%&-46%
Cc1cc2c(c(-c3ccc(Cl)cc3)c1)OC(CNC(=O)CCC(=O)N(C)C)C2 (stereo unspecified)	-18%
CC(=O)c1ccc(-c2ccc3c4c(ccc3c2)OC(CNC(=O)[C@@H]2CCCN2C(C)=O)C4)s1 (stereo partly specified)	-4%
O=C(c1ccc(Cn2cnnn2)cc1)N1CCOc2ccc(C(O)C3CCCCC3)cc2C1 (stereo unspecified)	-5%
COc1ccccc1/C=c1/[nH]c(=O)/c(=C\c2ccccc2OC)[nH]c1=O	-15%
COc1cccc(Cn2c(=O)c(-c3ccc(F)cc3)nc3cnc(OC)nc32)c1	-23%
CCCC[C@H]1COCCS(=O)(=O)N1Cc1ccc(F)cc1	-93%[inhibitor]
CCc1cc(Cl)c(OC)c(C(=O)NC[C@@H]2CCCN2CC)c1O	-17%&1%&3%
COc1cc(-c2cnc3ccccc3c2)cc2c1OCCN(C(=O)Cn1nccc1C)C2	-6%
O=C(c1ccncc1)N1CCC2(CC1)CCN(C(c1ccccc1)c1ccccc1)CC2	-54%[inhibitor]
COCCn1c(=O)c(-c2ccccc2)nc2cnc(N3CCN(C)CC3)nc21	-16%
COc1ccc(SC[C@H](Cc2ccccc2)N2CC[C@@H](NC(=O)OCc3ccccc3)CCC2=O)cc1	?
O=C(O)Cc1cc(I)c(Oc2ccc(O)c(I)c2)c(I)c1	-26%&-25%
FC(F)(F)c1ccccc1-c1cc(NCc2ccccc2)ncn1	-105%[inhibitor]
Oc1ccc2c(c1)OC(c1ccc(O)c(O)c1)C(O)C2 (stereo unspecified)	6%
CCCc1c(-c2ccc(O)cc2)nn(-c2ccc(O)cc2)c1-c1ccc(O)cc1	15%&15%
COC(=O)[C@@H]1CCCN1C(=O)c1cnn(-c2ncc3c(n2)-c2ccccc2CCC3)c1C1CC1	-3%
COc1ccc(CCN(C)CCCN2CCc3cc(OC)c(OC)cc3CC2=O)cc1OC	-17%

Next part (2 carried over from the part before).
SMILES	EPAC1 ag val
COC(=O)[C@@H]1CCCN1C(=O)c1cnn(-c2ncc3c(n2)-c2ccccc2CCC3)c1C1CC1	-3%
COc1ccc(CCN(C)CCCN2CCc3cc(OC)c(OC)cc3CC2=O)cc1OC	-17%
CCCCC[C@H](O)/C=C/[C@@H]1[C@H]2C/C(=C/CCCC(=O)O)C[C@H]2C[C@H]1O	-12%
CCCCC[C@H](O)/C=C/[C@H]1[C@H](O)CC(=O)[C@@H]1C/C=C\CCCC(=O)O	-13%
CCCCC/C=C\C[C@@H](O)/C=C/C=C/C=C\[C@@H](O)CCCC(=O)O	-4%
C#C[C@@]1(O)CCC2C3CCc4cc(O)ccc4C3CC[C@@]21C (stereo partly specified)	-12%
COCCn1c(=O)c(-c2cn(C)c3ccccc23)nc2cnc(N3CCOCC3)nc21	-20%
O=Cc1ccc2[nH]ccc2c1	-16%
COc1ccccc1CN1Cc2cccc3c2[C@@H](CC1=O)[C@H](O)[C@H](O)C3	4%
CN1CCN(c2ncc3ncc(=O)n(CCc4ccccc4)c3n2)CC1	-9%
COc1ccccc1CCNc1ncnc2sc(C(=O)N3CCCCC3)c(C)c12	-2%
CC(C)C[C@@H](CSc1ccccc1)N1CCN(C)CCC1=O	18%
CSc1ccc2c(c1)N(CCC1CCCCN1C)c1ccccc1S2 (stereo unspecified)	-11%&17%&-11%
CCn1c(-c2cccc(OC)c2)nc2cc(NC(C)=O)cc(C(=O)N3CCC[C@H]3C(=O)OC)c21	-6%
Cc1cc(C)cc(C(=O)N(C)[C@H](Cc2ccc(-c3ccccc3)cc2)C(=O)N[C@@H](Cc2c[nH]c3ccccc23)C(=O)O)c1	-5%
O=C(O)CCCC/C=C(\c1ccccc1)c1cccnc1	-30%[inhibitor]
CC(C)CN1CCC(=O)N([C@H](CN=[N+]=[N-])Cc2ccccc2)CC1	-29%
O=C1c2ccccc2C(=O)C1c1ccc(Br)cc1	-4%
COC(=O)[C@H]1[C@H]2C[C@H]3c4[nH]c5ccccc5c4CCN3C[C@H]2CC[C@@H]1O	-6%&-22%
COc1cccc(CNC(=O)c2c(OC)cc(=O)n3c2CCN(C(=O)c2ccc(Cl)cc2)CC3)c1	0%
CN(C)c1ccc(C(=O)N2CCCC(Cn3cc(C(=O)N4CCCC4)nn3)C2)cc1 (stereo unspecified)	24%
CNC(=O)[C@H]1O[C@H](n2cnc3c(NCc4cccc(I)c4)nc(Cl)nc32)[C@@H](O)[C@@H]1O	-20%

Structures shown so far that have a thiophene ring, fused or not, in the order listed:
SMILES	EPAC1 ag val
CC(=O)c1ccc(-c2ccc3c4c(ccc3c2)OC(CNC(=O)[C@@H]2CCCN2C(C)=O)C4)s1 (stereo partly specified)	-4%
COc1ccccc1CCNc1ncnc2sc(C(=O)N3CCCCC3)c(C)c12	-2%

(list continues)
SMILES	EPAC1 ag val
CO[C@H]1C[C@@H]2CC[C@@H](C)[C@@](O)(O2)C(=O)C(=O)N2CCCC[C@H]2C(=O)O[C@H]([C@H](C)C[C@@H]2CC[C@@H](O)[C@H](OC)C2)CC(=O)[C@H](C)C=C(C)[C@@H](O)[C@@H](OC)C(=O)[C@H](C)C[C@H](C)/C=C/C=CC=C1C	-64%&-60%[inhibitor]
O=C(O)c1cccnc1C(=O)O	-12%&8%&8%
O=C(O)/C=C1\CCCc2ccccc2C1O (stereo unspecified)	-5%
CC(C)C1=CC2=CC[C@@H]3[C@@](C)(C(=O)O)CCC[C@]3(C)C2CC1 (stereo partly specified)	4%
C#CCOc1ccc2c(C)cc(=O)oc2c1	-7%
C=C1C2CC[C@@]3(C)C(c4ccoc4)OC(=O)C[C@@]13OC1CC(O)C(C)(C)C(CC(=O)OC)[C@@]12C (stereo partly specified)	0%&-34%
Fc1ccc(Nc2ccnc(-c3ccoc3)n2)cc1	-40%[inhibitor]
O=S(=O)(NCc1nnc2n1CCN(Cc1ccccc1Cl)CC2)c1ccccc1	-2%
O=S1(=O)CCOCCCN1Cc1cccc(F)c1	25%
COc1ccc(-c2coc3cc(OC)cc(OC)c3c2=O)cc1	7%
COc1c2c(cc3c1C(NC(N)=O)[N+](C)(C)CC3)OCO2 (stereo unspecified)	5%
O=c1c(-c2ccc(Cl)cc2)nc2cnc(N3CCNCC3)nc2n1Cc1ccc(F)cc1	?
NCC1OC(O[C@H]2[C@H](O)[C@@H](OC3C(O)C(N)CC(N)C3OC3OC(CO)C(O)C(O)C3N)O[C@@H]2CO)C(N)C(O)C1O (stereo partly specified)	4%
COc1cc(OC)c(OC)cc1CN1CCCC(c2nc(C)ncc2-c2ccc(F)cc2)C1 (stereo unspecified)	-10%
Cc1ccccc1-c1nc(N2CCNCC2)c2ccccc2n1	19%
O=C(c1cccnc1)C1CCCN(Cc2ccc3c(c2)CN(C(=O)c2ccc4[nH]ccc4c2)CCO3)C1 (stereo unspecified)	-4%
CC(=O)[C@H](CC(C)C)NC(=O)[C@@H](CC(C)C)NC(=O)[C@H](CC(C)C)NC(=O)OCc1ccccc1	-12%
CC1=C(/C=C/C(C)=C/C=C/C(C)=C/C=C/C=C(C)/C=C/C=C(C)/C=C/C2=C(C)CCCC2(C)C)C(C)(C)CCC1	-9%
CC1(C)NC(=O)N(c2ccc([N+](=O)[O-])c(C(F)(F)F)c2)C1=O	7%&-9%&-15%&-17%
CCCCCCCCCCC/C=C\C/C=C\CCCC(=O)O	-2%
COc1cccc(-c2cc(NCc3ccc(OC)cc3OC)ncn2)c1	28%
CC(=O)O[C@H]1C[C@H]2CC[C@@H]3[C@H]4C[C@@H]([N+]5(C)CCCCC5)[C@@H](OC(C)=O)[C@]4(C)CC[C@@H]3[C@@]2(C)C[C@@H]1[N+]1(C)CCCCC1	-15%
COc1cc2c(cc1OC)C1CCC3=C([C@H](C)OC3=O)N1CC2 (stereo partly specified)	-26%
COC(=O)[C@H](CC(C)C)NS(=O)(=O)NC(=O)OC(C)(C)C	8%
COc1cccc(-c2cc(=O)c3ccc(OC)cc3o2)c1	-28%
C[C@@H](CN1CCC(Cc2ccccc2)CC1)[C@@H](O)c1ccc(O)cc1	-5%&-20%
[N-]=[N+]=N[C@@H](CCN1CC[C@H](O)CCC1=O)c1ccccc1	17%
CSc1ccc(/C=C2/C(C)=C(CC(=O)O)c3cc(F)ccc32)cc1	-1%
Nc1ncnc2c1nc(Br)n2[C@H]1O[C@H]2COP(=O)(O)O[C@H]2[C@@H]1O	1.1µM*
CC1=C(C(=O)OCCN(Cc2ccccc2)c2ccccc2)C(c2cccc([N+](=O)[O-])c2)C(P2(=O)OCC(C)(C)CO2)=C(C)N1 (stereo unspecified)	27%
O=C(c1csnn1)N1CCC2(CC1)CN(Cc1cc(C(F)(F)F)cc(C(F)(F)F)c1)C2	-60%[inhibitor]
O=C(NC[C@H](O)c1ccccc1)c1ccccc1	1%
CC(=O)C[C@H]1c2ccccc2S(=O)(=O)N1c1ccccc1	-39%[inhibitor]
COc1cc(OC)c2nc(-c3cc4c(c(OC)c3)OCCN(Cc3cn(C)nc3C)C4)cc(C)c2c1	4%
O=C(Oc1ccccc1)N1CCC2(CC1)CCN(c1ccccn1)CC2	-96%[inhibitor]
O=C(c1cnccn1)N1CCC2(CCCN(c3ccccn3)C2)CC1	13%
COC(=O)C1=C(C#N)NC(C)=C(C(=O)OC(C)C)C1c1cccc([N+](=O)[O-])c1 (stereo unspecified)	3%
CC(C)c1c(C(=O)Nc2ccccc2)c(-c2ccccc2)c(-c2ccc(F)cc2)n1CC[C@@H](O)C[C@@H](O)CC(=O)O	-38%[inhibitor]
O=C(C[n+]1ccnc2ccccc21)c1ccc(Cl)cc1	19%
CN(C)c1ncc2nc(-c3ccc(F)cc3)c(=O)n(CCC#N)c2n1	18%

Already shown: 3 of the compounds above.
SMILES	EPAC1 ag val
COc1cccc(-c2cc(NCc3ccc(OC)cc3OC)ncn2)c1	28%
CC(=O)O[C@H]1C[C@H]2CC[C@@H]3[C@H]4C[C@@H]([N+]5(C)CCCCC5)[C@@H](OC(C)=O)[C@]4(C)CC[C@@H]3[C@@]2(C)C[C@@H]1[N+]1(C)CCCCC1	-15%
COc1cc2c(cc1OC)C1CCC3=C([C@H](C)OC3=O)N1CC2 (stereo partly specified)	-26%

Following part
SMILES	EPAC1 ag val
CC1=C(/C=C/C(C)=C/C=C/C(C)=C/CO)C(C)(C)CCC1	-7%&-3%&-17%&-81%
CCOC(=O)N(C(=O)c1ccccc1)c1ccccc1	-69%[inhibitor]
COc1ccc(C(=O)N2CCC[C@@]3(CCN(C(=O)Nc4ccccc4)C3)C2)cc1	-11%
O=c1c(-c2ccccc2)nc2cnc(N3CCOCC3)nc2n1C1CC1	-19%
Clc1ccccc1C(c1ccccc1)(c1ccccc1)n1ccnc1	?
COc1ccc(-c2cc(C(=O)N3CCc4c(cnc(C)c4CNC(=O)c4ccsc4)C3)[nH]n2)cc1	-4%
Cn1c(NCCN(CCO)CCCc2ccc([N+](=O)[O-])cc2)cc(=O)n(C)c1=O	-38%[inhibitor]
COc1ccccc1CNCCCCCCNCCCCCCCCNCCCCCCNCc1ccccc1OC	6%&-4%
NCCCCCCCCCCNS(=O)(=O)c1cccc2c(Cl)cccc12	5%
Nc1ccc(/C=C/c2ccc3ncccc3c2)cc1	18%
CC(C)c1cc(/C=C(\C#N)C(=O)NCCCc2ccccc2)cc(C(C)C)c1O	28%
NC(=O)CNCCC(c1ccccc1)c1ccccc1	3%

6 records drawn at random from those above:
SMILES	EPAC1 ag val
COc1ccc(-c2cc(C(=O)N3CCc4c(cnc(C)c4CNC(=O)c4ccsc4)C3)[nH]n2)cc1	-4%
Cn1c(NCCN(CCO)CCCc2ccc([N+](=O)[O-])cc2)cc(=O)n(C)c1=O	-38%[inhibitor]
Clc1ccccc1C(c1ccccc1)(c1ccccc1)n1ccnc1	?
COc1ccccc1CNCCCCCCNCCCCCCCCNCCCCCCNCc1ccccc1OC	6%&-4%
NC(=O)CNCCC(c1ccccc1)c1ccccc1	3%
O=c1c(-c2ccccc2)nc2cnc(N3CCOCC3)nc2n1C1CC1	-19%

Bioassay records as filed in PubChem.
